Bioassay records deposited in PubChem BioAssay by National Center for Advancing Translational Sciences (NCATS).
TRPML1 agonist: qHTS for Agonists of the Human Mucolipin Transient Receptor Potential 1 (TRPML1) | Mucolipin-1 (Homo sapiens), Q9GZU1 | TRPML1-expressing cells, Ca2+ dye fluorescence, FDSS; host cell line not named in the record; reference of the full effect not given here | activation, % (concentration not given with the values) | actives 0.12% (n = 410,000) | AID 624414, 2012; in the data active = activation above about 50%; inconclusive = about 30% to 50%; inactive = below about 30%; note: 0% is about no effect; the text of the record puts the active cut at 80%
Target sequence (Q9GZU1 whole entry, looked up): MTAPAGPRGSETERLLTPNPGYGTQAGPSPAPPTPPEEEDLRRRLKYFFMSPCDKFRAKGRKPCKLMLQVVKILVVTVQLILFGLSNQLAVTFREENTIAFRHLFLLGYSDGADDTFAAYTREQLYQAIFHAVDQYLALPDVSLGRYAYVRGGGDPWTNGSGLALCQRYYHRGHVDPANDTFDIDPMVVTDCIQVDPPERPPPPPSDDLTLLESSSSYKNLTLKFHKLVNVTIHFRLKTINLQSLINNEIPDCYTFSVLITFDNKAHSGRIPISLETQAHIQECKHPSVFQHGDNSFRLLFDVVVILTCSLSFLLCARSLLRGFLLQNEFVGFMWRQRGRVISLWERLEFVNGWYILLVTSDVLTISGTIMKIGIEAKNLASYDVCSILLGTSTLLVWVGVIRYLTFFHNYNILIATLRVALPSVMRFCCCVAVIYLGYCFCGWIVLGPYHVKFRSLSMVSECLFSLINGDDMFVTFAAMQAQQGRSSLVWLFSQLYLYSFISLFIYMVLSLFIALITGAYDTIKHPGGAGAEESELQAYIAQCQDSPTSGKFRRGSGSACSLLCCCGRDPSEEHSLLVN
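Agonist activity was taken from a 110 s kinetic Ca2+ dye read on the FDSS after pinning compounds onto TRPML1-DL cells. The cells were seeded at 1,500/well with Tet inducer, incubated about 16 h, then dye-loaded at room temperature.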
D2 ag: Beta-Arrestin HTS for Positive Allosteric Modulators of the Human D2 Dopamine Receptor: Agonists; D(2) dopamine receptor (Homo sapiens), P14416; DiscoveRx PathHunter D2 beta-arrestin, luminescence, 90 min; 100% = 57 uM dopamine signal; activation, % (concentration not given with the values); actives 0.084% (n = 360,000); AID 624465, 2012; in the data active = activation above about 40%; inconclusive = about 15% to 40%; inactive = below about 15%; note: compound concentration not given in the record; the text of the record calls up to 30% inactive
Target sequence (P14416 whole entry, looked up): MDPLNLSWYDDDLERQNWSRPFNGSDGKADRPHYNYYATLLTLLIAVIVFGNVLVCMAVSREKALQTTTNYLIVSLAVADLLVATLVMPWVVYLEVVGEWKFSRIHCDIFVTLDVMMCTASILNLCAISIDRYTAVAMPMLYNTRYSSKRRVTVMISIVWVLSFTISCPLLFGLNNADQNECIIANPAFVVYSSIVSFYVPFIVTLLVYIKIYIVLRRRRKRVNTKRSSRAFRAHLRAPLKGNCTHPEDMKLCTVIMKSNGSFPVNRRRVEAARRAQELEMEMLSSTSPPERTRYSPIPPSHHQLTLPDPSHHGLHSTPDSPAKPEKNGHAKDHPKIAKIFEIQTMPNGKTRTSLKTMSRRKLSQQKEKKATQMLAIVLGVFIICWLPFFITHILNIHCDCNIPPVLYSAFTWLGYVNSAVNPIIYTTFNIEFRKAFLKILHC
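Agonist mode: compounds alone added to overnight-plated D2 PathHunter cells for 90 min at 37 C, with 57 uM final dopamine (EC100) defining full response. Beta-arrestin recruitment detected by chemiluminescent reagent, read after 1 h at ambient temperature.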
Six1-Eya2 inh: qHTS Assay for Inhibitors of the Six1/Eya2 Interaction; activity change, % (no concentration beside the values); actives 0.56% (n = 360,000); AlphaScreen GST-Six1/His-Eya2 binding, biochemical; stronger effect = lower value; control for the full effect not named in the record; AID 651725, 2012; in the data active = activity change below about -65%; inconclusive = about -30% to -65%; inactive = above about -30%; note: % is set by controls: 0 for no effect and ±100 for the full control effect; compound concentration not given in the record
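Six1/Eya2 binding was read as AlphaScreen signal after compounds were pinned into GST-Six1 plus His-tagged Eya2 (5X stock 250/500 nM) in pH 8.0 Tris/NaCl/TCEP buffer, beads added, then incubated 1 h, 37 C, dark.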
D2 potentiator: Beta-Arrestin HTS for Positive Allosteric Modulators of the Human D2 Dopamine Receptor: Potentiators; D(2) dopamine receptor (Homo sapiens), P14416; DiscoveRx D2 beta-arrestin cells, luminescence, 90 min; 100% = 57 uM dopamine signal; potentiation, % (test concentration not listed); actives 0.23% (n = 360,000); AID 624464, 2012; active = potentiation of 50% or more; inconclusive = 30% to 50%; inactive = 30% or less;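 note: compound concentration not given in the record; tested on top of an EC20 dose of dopamine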
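D2 cells co-treated with compound plus 50 nM dopamine (EC20) for 90 min at 37 deg C to detect potentiation. Beta-arrestin recruitment was read as enzyme-fragment luminescence after 1 h at ambient temperature. Full response was set by 57 uM dopamine.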
PINK1 modulator: A Quantitative High throughput Screen to Identify Chemical Modulators of PINK1 Expression. PINK1 immunofluorescence, high-content cytometry, 24 h. Potency, µM (highest dose often 76.6 µM), inactives show at the top dose activation (PINK1 increase), hits mostly activators. actives 0.2% (n = 410,000); active = well fitted activation curve with a large enough effect; inconclusive = small, poorly fitted or top-dose-only effect; inactive = flat fitted curve, though single readings scatter; cell line not stated here;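 note: potency is the fitted concentration of half-maximal effect; % of control where 0% means no effect; nearly all actives have a fitted effect of over 65% in size; a mitochondrial uncoupler was the plate control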
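Compound titrations (5 concentrations, 24 h) on a stable cell line; DMSO and CCCP controls. Endpoint: fixed-cell PINK1 immunofluorescence with mitochondrial, cell and nuclear markers, scanned by microplate cytometer.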
TRPML1 blocker: qHTS for Inhibitors of the Human Mucolipin Transient Receptor Potential 1 (TRPML1); TRPML1-inducible cells, Ca2+ dye fluorescence, FDSS; stronger effect = lower value; inhibition of EC80 agonist-evoked calcium signal; activity change, negative = inhibition, % (test concentration not listed); actives 0.02% (n = 390,000); AID 624415, 2012; in the data active means activity change below about -50%; inconclusive means about -30% to -50%; inactive means above about -30%;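 note: stimulus is agonist 54-4 at its EC80 concentration; % is set by controls: 0 for no effect and ±100 for the full control effect; compound concentration not given in the record; the text of the record puts the active cut at -80%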
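Tet-induced TRPML1-DL cells loaded with Ca8 no-wash calcium dye were read kinetically on FDSS. Compound addition was followed by EC80 agonist 54-4 (4 uM final); inhibition was read over 110 s.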
Numbers without * were called inactive; ? = inconclusive; nt = not tested or not shown; & = joins results of further samples; [ ] = dose if it differs, or a comment.

SMILES	TRPML1 agonist	D2 ag	Six1-Eya2 inh	D2 potentiator	PINK1 modulator	TRPML1 blocker
COc1ccccc1OCCNC(=O)CN1C(=O)NC2(CCCC2)C1=O	-0.3	-0.3	0	-20	1.0%	2
Cc1ccc2oc(=O)n(CCOc3ccccc3)c2c1	0.6	-7.1	-1	-2	-0.1%	-5
CCOC(=O)CSc1nnc(-c2cccnc2)n1Cc1ccccc1	-0.1	-1.0	-3	-8	-2.0%	0
Cc1ccc(N2CC(C(=O)N3CCC(C(=O)Nc4ccc(Br)cc4)CC3)CC2=O)cc1 (stereo unspecified)	0.3	2.3	-2	-9	1.2%	36
CCC1=C2CC[C@H]3C(=O)N(CC)C(=O)[C@H]3[C@H]2[C@@]2(Cc3ccccc3)C(=NCCOC)OC(=O)N2C1=O	1.0	-3.2	7	-7	-1.3%	1
c1ccc(-c2nn3c(Cn4nnc5ccccc54)nnc3s2)nc1	0.0	-1.6	-19	3	8.6%[38.3 µM]	8
Cc1ccc(-c2nnc(Nc3cccc(Cl)c3)c3ccccc23)cc1S(=O)(=O)N1CCN(C)CC1	1.2	nt	nt	nt	-0.3%	0
O=C(Nc1ccccn1)NC(C(F)(F)F)C(F)(F)F	0.6	1.8	3	-1	4.6%	-2
C[C@H](CO)N1C[C@H](C)[C@@H](CN(C)C(=O)CN2CCOCC2)Oc2ncc(-c3cncnc3)cc2C1=O	0.7	-4.0	15	-14	2.3%	0
O=C(c1ccccc1NS(=O)(=O)c1ccc(F)cc1F)N1CCCCC1	-0.4	-1.4	6	1	-3.1%	-5
CCOc1ccc(S(=O)(=O)N2CCOCC2)cc1NC(=O)CN1C(=O)NC(C)(C2CC2)C1=O (stereo unspecified)	0.3	-0.1	1	-3	2.6%	-5
Cc1ccccc1OCC(=O)NCC(=O)OCC(=O)c1ccc([N+](=O)[O-])cc1	-0.5&0.9	7.7	7	-9	-0.7%&0.4%	4
CC(C)(C)c1ccc(NC(=O)NC2CCCc3ccccc32)cc1 (stereo unspecified)	-0.4	-2.0	-1	-19	8.3%	34
COCCNC(=O)C(c1ccccc1)N(CCOC)C(=O)Cn1nnc2ccccc21 (stereo unspecified)	1.6	-4.1	1	-4	0.8%	12
Cc1cc(C)c(NC(=O)Cn2cc3c(n2)CCCC3)c(C)c1	0.7	-2.3	-7	-2	5.3%	-10
CC1CCN(CCCNS(=O)(=O)c2cc(Br)cc3c2N(C(=O)C2CC2)CC3)CC1	-0.6	-2.4	-5	-20	-0.7%	5
Cc1cc(C(F)F)n2ncc(C(=O)NCc3ccc(F)cc3)c2n1	-1.1	0.1	-3	1	0.2%	2
CCOc1ccc(C(=O)NCC(=O)OCC(=O)Nc2cccc(S(=O)(=O)N3CCCC3)c2)cc1	2.1	0.7	4	8	1.5%	41
COc1ccc(NS(=O)(=O)c2cccc(-c3n[nH]c(=S)n3Cc3ccccc3)c2)cc1	-1.6	4.5	-10	-14	1.0%	-4
CC(=O)C1=C(C)NC(SCC(=O)Nc2nc3ccccc3s2)=C(C#N)C1c1ccc(Cl)cc1 (stereo unspecified)	0.9	-1.7	-5	-4	?	18
COc1ccc(Cn2cc(S(=O)(=O)c3ccc(C)cc3)c(=O)c3cc(F)ccc32)cc1	0.7	nt	nt	nt	0.3%	4
CCCCOc1ccc(Cn2c(=O)oc3ccccc32)cc1	3.8&1.8	1.7	20	3	13%&3.4%	13&9
CCOc1ccc(C2(C)NC(=O)N(CCN(C)C)C2=O)cc1 (stereo unspecified)	-0.5	5.7	2	-1	0.4%	8
CSc1ccc(/C=C/C(=O)c2ccc(NC(=O)Cc3ccccc3)cc2)cc1	0.1	-1.6	0	0	6.4%[38.3 µM]	-6
Cc1ccccc1C(=O)NC(CC(C)C)C(=O)NN1C(=O)c2ccccc2C1=O (stereo unspecified)	0.5	-2.7	-3	3	-1.9%	-15
CCOCC(=O)Nc1cc(Cl)ccc1C	1.5	-6.5	0	-6	0.2%	3
CC1=C(C(=O)N2CCCC(C(=O)c3cccc4ccccc34)C2)OCCO1 (stereo unspecified)	2.7	4.8	-1	0	1.0%	21
Cc1c(N(C)S(=O)(=O)c2ccc(Cl)c(C(=O)N3CCC(C(N)=O)CC3)c2)c(=O)n(-c2ccccc2)n1C	4.9	-2.4	3	0	2.9%	1
CS(=O)(=O)N(CC(=O)Nc1ccccc1-c1ccccc1)c1ccc(F)cc1	1.0	1.4	1	-11	3.8%	15
O=C(Cn1c(=O)n(Cc2ccco2)c(=O)c2oc3ccccc3c21)Nc1ccc(F)cc1F	1.3	nt	nt	nt	?	-23
O=C(NCc1ccccc1)Nc1cccn(Cc2c(F)cccc2Cl)c1=O	2.3	-5.0	0	-7	6.6%	15
COc1ccc(N2CCN(CCC(N)=O)CC2)cc1	-0.3	3.8	4	-7	1.0%	9
CCCCn1c(N)c(N(CCOC)C(=O)c2ccc(-c3cccc(C(F)(F)F)c3)o2)c(=O)[nH]c1=O	0.3	1.5	1	-1	0.1%	-8
CCc1ccccc1NC(=O)c1onc(C)c1Cl	-1.3	-6.2	13	-4	-0.6%	-7
CCOC(=O)/C=C/C(=O)OCC(=O)Nc1ccc(Cl)cc1Cl	0.1	0.0	5	-3	3.9%	9
COCCCN=C(c1ccco1)n1c(=S)nc(-c2ccco2)n(CCCOC)c1=S	-0.5	-1.9	-9	-11	0.1%[38.3 µM]	-6
COc1ccc(C(NC(C)=O)c2nccc3cc(OC)c(OC)cc23)cc1OC (stereo unspecified)	0.0	5.1	10	-2	-0.4%	6
CCOCCCn1c(C)nc2c[n+](CC(=O)c3ccc4ccccc4c3)cc(Br)c21	-0.5	-6.7	2	-7	3.0%	8
N#Cc1cc(-c2ccc(Cl)cc2)cnc1Sc1ccccc1	4.2	1.7	12	-3	3.3%[38.3 µM]	70
O=C(CSc1nc2ccccc2nc1Cc1ccccc1)NCc1ccccc1Cl	3.0	nt	nt	nt	3.8%	25
CC(=O)Nc1ccc(-c2csc(NC(=O)CCCc3cccs3)n2)cc1	-0.3	1.2	9	-6	-0.7%	6
CCOP(=O)(c1ccc(N(C)C)cc1)C(O)c1ccc(C)cc1 (stereo unspecified)	0.9	-4.7	-10	-8	0.7%	-6
COc1cccc(Cn2c3ccc(NC(=O)CC(C)C(F)(F)F)cc3c(=O)n2C)c1 (stereo unspecified)	-0.7	4.0	7	3	1.9%	nt
O=C1CNC(=S)N1CCOc1ccccc1	-0.5	-1.1	1	-6	-1.4%	4
O=[N+]([O-])c1cc(C(F)(F)F)cc([N+](=O)[O-])c1NCCNC(=S)Nc1cccc(F)c1	2.3	-2.9	-22	-10	?	15
Cc1cccc(N2CCN(C(=O)c3ccc4nc(N5CCC(C)CC5)sc4c3)CC2)c1C	1.9	nt	nt	nt	-0.6%	-24
Cc1nn(Cc2ccccc2)c(C)c1C(=O)Nc1ccc(N2CCOCC2)cc1	-1.0	-2.0	-9	-1	-3.4%	10
CCN(CC)S(=O)(=O)c1ccc(Cc2ncc(C(F)(F)F)cc2Cl)s1	1.9	-2.7	11	-5	2.6%	27
O=C(COc1ccc2ccc(=O)oc2c1)Nc1ccc2c(c1)OCCO2	1.2	0.7	0	-6	-1.4%	-15
Cc1ccc(C(=O)NCC(=O)OCc2cccc(Br)c2)cc1	3.4	-1.9	8	-12	2.6%	21
Next part.
SMILES	TRPML1 agonist	D2 ag	Six1-Eya2 inh	D2 potentiator	PINK1 modulator	TRPML1 blocker
O=C(c1ccc2c(Cl)c3c(nc2c1)CCCC3)N1CCN(c2cccc(C(F)(F)F)c2)CC1	0.5	nt	nt	nt	1.1%	-10
CC(C)Cc1nc2oc3c(NCC4CCCO4)ncnc3c2c2c1CCC2 (stereo unspecified)	0.0	-0.9	-1	-5	4.9%[38.3 µM]	3
O=C(NNS(=O)(=O)c1ccc(Cl)cc1)c1ccc(S(=O)(=O)N2CCCCC2)cc1	0.0	-3.5	-4	-13	0.4%	33
Cc1ccc(CCNC(=O)c2nnc(CS(=O)(=O)c3ccccc3)o2)cc1	0.2	-1.5	-3	-2	-0.9%	8
CC(C)n1nc(C(=O)NNC(=O)c2ccc(OC(F)F)cc2)c2ccccc2c1=O	-2.2	-0.8	2	4	-0.3%	-8
CCCCN(C)C(=O)CCC(=O)Nc1ccc2nc(N3CCOCC3)cc(C)c2c1	0.5	-3.6	-2	-1	8.0%[38.3 µM]	-4
COc1ccc(-c2cc(CCC(=O)N3CCN(c4cc(C)ccc4C)CC3)[nH]n2)cc1	0.1	1.0	-15	-2	0.1%	11
CC1(C(=O)NS(=O)(=O)c2cccc(Cl)c2)CCN1C(=O)Cc1cc(F)ccc1F (stereo unspecified)	-0.6	-2.4	17	0	1.1%	nt
CCN1CCN(C(=O)CN(C)S(=O)(=O)c2ccc(OC)cc2)CC1	-0.1	2.2	6	-4	-0.9%	-3
O=C(O)c1ccc(-n2cc(-c3cc4ccccc4oc3=O)[nH]c2=S)cc1	0.0	2.8	-12	-22	1.8%	5

Single entries from the list.
`CC1(C(=O)NS(=O)(=O)c2cccc(Cl)c2)CCN1C(=O)Cc1cc(F)ccc1F` (stereo unspecified) @ D2 potentiator: 0
`CC(C)Cc1nc2oc3c(NCC4CCCO4)ncnc3c2c2c1CCC2` (stereo unspecified) @ PINK1 modulator: 4.9%[38.3 µM]
`O=C(NNS(=O)(=O)c1ccc(Cl)cc1)c1ccc(S(=O)(=O)N2CCCCC2)cc1` @ D2 ag: -3.5

The list continues.
SMILES	TRPML1 agonist	D2 ag	Six1-Eya2 inh	D2 potentiator	PINK1 modulator	TRPML1 blocker
CC(C)(C)c1ccc(C(=O)Nc2ccc(S(N)(=O)=O)cc2)cc1	-0.3	-3.2	2	3	2.3%	-3
CC1CCC2(CC1)NC(=O)N(CC(=O)Nc1ccc3c(c1)OCCCO3)C2=O (stereo unspecified)	0.3	-2.1	1	-2	-0.7%	-1
Cc1onc(C(=O)N2CCC(Cc3ccccc3)CC2)c1[N+](=O)[O-]	-1.7	1.8	-6	-4	2.1%	3
COC(=O)c1ccc(NC(=O)C(C)Oc2ccccc2)cc1 (stereo unspecified)	-0.7	-0.7	3	11	-0.2%	3
COc1ccc(CCN(C)C(=O)CSc2nnc(C3CC3)n2N)cc1OC	-0.1	-0.9	-1	-5	4.1%	-6
Cc1ccc(Nc2ccc3cc(S(=O)(=O)N4CCC(C)CC4)ccc3n2)c(Cl)c1	14	nt	nt	nt	-0.8%	-14
O=C(C/C=N/OCc1c(Cl)cccc1Cl)c1ccc(Cl)cc1	0.4	-0.7	16	-5	0.7%	-20
